NPYLR7 agonist: mosquito NPYLR7 agonism. HEK293T NPYLR7/Galpha15, GCaMP6s calcium fluorescence. activation, % at 10 µM. actives 0.15% (n = 270,000). AID 1259423; in the data active means activation above about 40%;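 further: 0% = vehicle and 100% = reference agonist at the receptor; some compounds past the cut are filed as inactive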
NPYLR7 agonist max-min: also measured in NPYLR7 agonist; calls as there; activation, %; measured here: Max-Min RFU normalised activation; some inactives read as strong as hits;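 span of the calcium signal over five minutes; 0% = vehicle and 100% = native peptide agonist; compound fluorescence can raise it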
* marks the source's active call; other numbers are inactive results; & = joins results of further samples. This is a subset, so the mix of outcomes need not match the whole.

SMILES	NPYLR7 agonist	NPYLR7 agonist max-min
O=C(c1ccsc1)N1CCOC(CCCc2ccccc2)C1 (stereo not given)	5	3
CC1CN(C(=O)C2(NC(=O)OC(C)(C)C)Cc3ccccc3C2)CC(c2ccccc2)O1 (stereo not given)	3	0
CC(C)c1nnc(-c2cc3ccccc3n2Cc2cccnc2)o1	-7	-7
N[C@@H]1CC[C@@H](NC(=O)c2ccc3cccnc3n2)C1	1	-4
CC(=O)Nc1cccc(C(=O)N2CCOC(COCc3ccccc3F)C2)c1 (stereo not given)	-4	-6
CCc1ccc(Nc2nnc(SCC(=O)N(CC)CC)s2)cc1	9	9
Cc1ccc(Cn2ccnc2-c2ccccc2C(=O)O)cc1	15	7
CCCCN(CC(=O)N(CCc1ccc(OC)c(OC)c1)Cc1cccs1)C(=O)Nc1ccc(OCC)cc1	-7	-12
CCOC(=O)c1cnn(CCC#N)c1NC(=O)c1cc(F)cc(Br)c1	4	2
CCN(CC)CCCNc1nc(N)c([N+](=O)[O-])c(N2CCN(C)CC2)n1	2	1
CC(=O)c1ccc2c(c1)N(Cc1ccc(C(F)(F)F)o1)C(=O)C(C)S2 (stereo not given)	-5	-6
CCCCN(CCCC)Cn1c(O)c(N=NC(=O)CON=C(C)c2ccccc2)c2ccccc21	-1	-4
C=CCONC(=O)CN1C(=O)NC2(CCN(C(=O)OCc3ccccc3)CC2)C1=O	0	14
Cn1c(-c2nc(C(=O)NCc3ccncc3)cs2)cc2ccccc21	1	-2
CC(C)CC(NC(=O)Cn1c(=O)[nH]c(=O)c2ccccc21)c1ccccc1 (stereo not given)	3	10
Cc1cccc(-c2nnc(CCC(=O)N3CCSCC3)c(=O)[nH]2)c1	27	15
CC(C)(C)c1cc(NC(=O)CCc2ccccc2O)n[nH]1	7	5
CCOc1ccc(NC(=O)N2CCC(Cc3ccc4c(c3)OCO4)CC2)cc1	-2	5
N=C1C(c2nc(-c3ccc(F)cc3)cs2)C(=O)CN1CCCN1CCOCC1 (stereo not given)	6	3
O=S(=O)(c1ccc2c(c1)OCCO2)N(Cc1ccco1)Cc1cccs1	11	18
Cn1nc(-c2ccc(NC(=O)C3c4ccccc4Oc4ccccc43)cc2)ccc1=O	-2	-3
Cc1cc(C)cc(NC(=O)CN2C(=O)c3ccccc3C2=O)c1	0	-10
COc1ccc(OC)c(NC(=O)C2(C)CCN2Cc2ccoc2)c1 (stereo not given)	-1	-3
C=CCNc1nc2cc(-c3cccc(Cl)c3Cl)sc2c(=O)n1C	7	7
COc1c(C)cnc(CN(C)C(=O)c2cc(C(C)C)nn2C)c1C	0	-6

Compound profiles, from the list above:
CC(=O)c1ccc2c(c1)N(Cc1ccc(C(F)(F)F)o1)C(=O)C(C)S2 (stereo not given) as listed: NPYLR7 agonist: -5; NPYLR7 agonist max-min: -6
COc1ccc(OC)c(NC(=O)C2(C)CCN2Cc2ccoc2)c1 (stereo not given) as listed: NPYLR7 agonist: -1; NPYLR7 agonist max-min: -3

(cont.)
SMILES	NPYLR7 agonist	NPYLR7 agonist max-min
COc1cc2c(cc1OC)CN(C1CCCN(Cc3cc4ccccc4o3)C1)CC2 (stereo not given)	-2	-3
O=C(O)C1CCS(=O)(=O)C1 (stereo not given)	-1	-5
CC(C)=CC(=O)N1CCN(c2nccc(-c3ccc(Oc4ccccc4)cc3)n2)CC1	32	31
Cc1ccccc1-n1c(SCc2nc(C(=O)NCCc3ccc(Cl)cc3Cl)cs2)nnc1-c1ccco1	22	23
COCCCN(Cc1ccc(OS(C)(=O)=O)cc1)C(=O)Nc1ccccc1OC	-14	-7
N#Cc1ccc(NC(=O)N2CCCC2C(=O)Nc2nnc(-c3ccc(Cl)cc3)s2)cc1 (stereo not given)	7	1
CCOC(=O)c1nnn(-c2nc(OCC)nc(N(C)C)n2)c1C	0	-4
Cc1ccc(Cl)cc1-n1c(SCc2nc(C(=O)N3CCC4(CC3)OCCO4)cs2)nnc1-c1ccco1	6	3
COC(=O)c1c(C)[nH]c(C(=O)C(C)OC(=O)CCC2CCCC2)c1C (stereo not given)	0	0
CC(=O)Oc1ccccc1Cn1c(C)c(C(=O)NCc2ccccc2C(F)(F)F)sc1=O	10	6
CC1(C(=O)NS(=O)(=O)c2ccc(C#N)cc2)CCN1C(=O)c1ccccc1CCc1ccccc1 (stereo not given)	4	-1
Cc1[nH]n(-c2nc(-c3ccccc3)cs2)c(=O)c1N=Nc1ccccc1O	-3	-6
Cc1ccc2[nH]cc(-c3cc(CN)ccc3F)c2c1	0	-5
Cn1c(SCc2cccc(F)c2)nc2c([nH]c3ccccc32)c1=O	7	28
COc1ccc(CC(=O)NCc2nnc(SCC(=O)Nc3nc4ccccc4s3)n2-c2ccc([N+](=O)[O-])cc2)cc1	-8	-4
CNC(=O)c1nnc2n1CCN(C(=O)c1ccccc1C)C2	10	4
COc1ccc(NC(=O)c2cccnc2Oc2cccc([N+](=O)[O-])c2)cc1	0	-10
Cc1cc(C)cc(OCc2nc(C(=O)N3CCC(C)CC3)cs2)c1	24	25
O=S(=O)(NCc1ccco1)c1cccc2ccccc12	6	2
O=C1c2cccc3c(Cl)ccc(c23)C(=O)N1c1cccc(O)c1	1	-4
Cc1cccc(S(=O)(=O)NCCCN2CCOCC2)c1	-6	-11
CCOC(=O)CSc1nc2c([nH]c3ccccc32)c(=O)n1-c1ccc(F)cc1	2	31
N#Cc1ccc(-c2ccnc3n[nH]c(-c4ccccc4)c23)cc1	20	12
Cc1nc(N(C)C)ncc1C(=O)N(Cc1ccncc1)CC1CCCO1 (stereo not given)	-4	-10
CCOC(=O)c1ncc2[nH]c3cccc(OC(C)C)c3c2c1C	-12	-17

More records follow.
SMILES	NPYLR7 agonist	NPYLR7 agonist max-min
CN(C(=O)c1cc(=O)[nH]c2ccccc12)C1CCCN(CCCc2ccccc2)C1 (stereo not given)	-1	-1
CC(C)CCN(CCC(C)C)C(=O)Cn1cc(C(F)(F)F)cc(Cl)c1=O	13	5
CCCN1CCC(NC(=O)OCC)CC1	-8	-15
CC(C(=O)OCC(=O)c1cccc([N+](=O)[O-])c1)N1C(=O)C2C3CCC(C3)C2C1=O (stereo not given)	-1	-5
CC(=O)c1cccc(OCC(=O)N2c3ccccc3CC2C)c1 (stereo not given)	-16	-14
CCOC(=O)N1CCC(NCCCn2cc(C)cn2)CC1	-3	0
CCCC1SCCN1C(=O)c1ccc(S(=O)(=O)NC)o1 (stereo not given)	2	0
CCN(CC)[N+]([O-])=NO	-5	-11
O=C(Nc1nnc(C2CC(=O)N(c3ccccc3)C2)o1)c1cc(Cl)sc1Cl (stereo not given)	6	3
CN(C)C(=O)CC(=O)Nc1cc(CC2CCCCC2)[nH]n1	1	1
CC(C)C1C2=C(CCCC2=O)OC(=N)C1C#N (stereo not given)	9	7
Cc1ccc(-n2c(C(C)N(C)C(=O)C(Cl)Cl)nc3cc(Cl)ccc3c2=O)cc1 (stereo not given)	-9	-1
COc1cccc(NC(=O)N2CCSC23C(=O)N(Cc2cccc(C)c2)c2ccc(F)cc23)c1 (stereo not given)	9	14
O=C(COc1ccc(Cl)cc1)NC1CCN(c2ccccc2C(=O)NCC2CCCO2)CC1 (stereo not given)	-2	3
CCS(=O)(=O)NCc1nnc(SCc2ccc(F)cc2)n1-c1ccc(C)cc1	31	32
CC(C)(C)OC(=O)NC1CCN(C(=O)c2ccc(CSc3nnc4ccccn34)cc2)C1 (stereo not given)	-10	-21
COc1ccc(C)cc1NC(=O)Nc1ccc(Nc2cc(-n3ccnc3)nc(C)n2)cc1	-13	-19
CC(Cn1cccn1)NC(=O)NCC(c1cccs1)N1CCCC1 (stereo not given)	-4	-5
CN(Cc1ccc(-n2cncn2)cc1)Cc1ncc[nH]1	9	6
O=C(N/N=C\c1ccccc1OC(=O)c1ccccc1)c1ccc(NC(=O)c2ccccc2)cc1	3	1
COc1ccccc1C(=O)N(Cc1ccccc1)Cc1ccc(OS(C)(=O)=O)cc1	-8	-13
CCOc1ccccc1CNc1c2c(nc3ncnn13)CCC2	11	1
COCCc1nnc(NC(=O)Nc2ccc(OC)cc2)s1	5	0
CCN(Cc1noc(CC(C)C)n1)C(=O)c1ccco1	2	0
O=C(Nc1ccccc1)N1CCN(C(=O)c2ccccc2SC(F)F)CC1	4	2

7 structures already listed, arranged by length of the SMILES, descending.
SMILES	NPYLR7 agonist	NPYLR7 agonist max-min
COc1cccc(NC(=O)N2CCSC23C(=O)N(Cc2cccc(C)c2)c2ccc(F)cc23)c1 (stereo not given)	9	14
N#Cc1ccc(NC(=O)N2CCCC2C(=O)Nc2nnc(-c3ccc(Cl)cc3)s2)cc1 (stereo not given)	7	1
COc1ccc(NC(=O)c2cccnc2Oc2cccc([N+](=O)[O-])c2)cc1	0	-10
CC(C)CCN(CCC(C)C)C(=O)Cn1cc(C(F)(F)F)cc(Cl)c1=O	13	5
Cn1c(-c2nc(C(=O)NCc3ccncc3)cs2)cc2ccccc21	1	-2
CNC(=O)c1nnc2n1CCN(C(=O)c1ccccc1C)C2	10	4
CCN(Cc1noc(CC(C)C)n1)C(=O)c1ccco1	2	0

Given as comma-separated lines: part of the list above
molecule,NPYLR7 agonist,NPYLR7 agonist max-min
Cc1ccc(-n2c(C(C)N(C)C(=O)C(Cl)Cl)nc3cc(Cl)ccc3c2=O)cc1 (stereo not given),-9,-1
CN(C(=O)c1cc(=O)[nH]c2ccccc12)C1CCCN(CCCc2ccccc2)C1 (stereo not given),-1,-1
CCN(Cc1noc(CC(C)C)n1)C(=O)c1ccco1,2,0
O=C(COc1ccc(Cl)cc1)NC1CCN(c2ccccc2C(=O)NCC2CCCO2)CC1 (stereo not given),-2,3
O=C(Nc1ccccc1)N1CCN(C(=O)c2ccccc2SC(F)F)CC1,4,2
CN(C)C(=O)CC(=O)Nc1cc(CC2CCCCC2)[nH]n1,1,1

(continued)
SMILES	NPYLR7 agonist	NPYLR7 agonist max-min
O=C(CSc1ccc2nnc(-c3ccncc3)n2n1)N1CCCCC1	-5	-5
CCN1C(=O)NC2(CCN(S(=O)(=O)c3cccnc3)CC2)C1=O	0	0
COCCc1noc(CSC(C)c2ccccc2Cl)n1 (stereo not given)	0	-4
Cc1cc(NC(=O)C2(C)CCOCC2)nc(C(C)C)n1	15&13	9&9
CCN=c1scc(-c2ccco2)n1N=Cc1ccc2c(c1)OCO2	-1	-6
O=C(CSc1nnnn1-c1cccc(F)c1)NCc1ccc2c(c1)OCO2	18	8
C=CCNc1oc(-c2ccc(COc3ccc(C)cc3)o2)nc1C#N	1	12
C/C(=N/N=C1\NC(=O)C(CC(=O)Nc2cccc(Cl)c2Cl)S1)c1ccc(F)cc1 (stereo not given)	4	1
COc1ccc(CCN(C)C(=O)c2cc(-c3ccc(F)cc3)n(-c3ccc(C)cc3)c2C)cc1OC	-2	7
CCc1ncc2c(n1)CN(C(=O)c1cccc3c(C)c(C)[nH]c13)C2	14	6
CC(C)CCC1(C)NC(=O)NC1=O (stereo not given)	0	-2
COc1ccc(-n2nc(-c3ccccc3F)cc2C(=O)N(CCc2ccccc2)Cc2ccccc2)cc1	8	7
COc1ccc(-c2ccc(=O)n(CCCNC(=O)Nc3ccccc3OC)n2)cc1	-2	-3
OC(c1ccccc1)c1ncc(-c2cccc(C(F)(F)F)c2)[nH]1 (stereo not given)	5	2
CC1CC1C(=O)NCCC(=O)OC1CCCC1 (stereo not given)	16	12
NC(=O)CCN(C(=O)c1cc2ccccc2o1)c1ccc(F)cc1	5	-1
COc1cccc(OC)c1C(=O)N[C@@H]1C(=O)N2[C@@H]1SC(C)(C)[C@@H]2C(=O)O	-8	-13
O=C(Nc1ccccc1Br)N1CCC2(CC1)SCCN2C(=O)c1ccc(Br)cc1	0	13
COc1cccc(-c2noc(CSCc3cc(=O)n4c(C)csc4n3)n2)c1	1	0
CCCCCCCCCC(=O)Nc1ccc(N2CCCC2)c(C(=O)N2CCCC2)c1	-4	0
COc1ccc(C2=NC(=Cc3sccc3C)C(=O)O2)cc1OC	-8	-10
C[C@@H]1CC[C@H]2C(C)(C)C3CC12CC[C@@]3(C)O (stereo not given in full)	-13	-15
Cc1c(C(=O)NCc2ccccc2C(F)(F)F)sc(=O)n1Cc1ccc(F)c(Cl)c1	-8	-1
CCCCc1ccc(C(=O)N2CCN(C(=O)CN3CCc4sccc4C3c3cccc(F)c3)CC2)cc1 (stereo not given)	10	3
CN(C)CCN(C(=O)c1ccc([N+](=O)[O-])s1)c1nc2cc3c(cc2s1)OCCO3	-5	-8

Remaining list, next part.
SMILES	NPYLR7 agonist	NPYLR7 agonist max-min
CC1(C)C(=O)NC(=O)N1CC(=O)N1CCC1c1ccc(F)cc1 (stereo not given)	-1	3
COc1ccc2nc(-c3cccc(NS(=O)(=O)c4ccc(C)s4)c3)cn2n1	-9	-13
CCCCc1noc(C(C)SCc2cc3ccccc3[nH]c2=O)n1 (stereo not given)	-1	3
COC(=O)c1ccc(CN2CCN(Cc3cccc(OC)c3)C(CCO)C2)cc1 (stereo not given)	21	11
COC(=O)c1ccccc1NC(=O)Cn1ccn2nc(-c3ccc(OC)c(OC)c3)cc2c1=O	18	11
CCCc1nc(N2CCN(S(=O)(=O)c3ccc(Cl)c([N+](=O)[O-])c3)CC2)c2c(-c3ccccc3)noc2n1	16	24
CNc1oc(-c2ccc(C)cc2)nc1S(=O)(=O)c1ccccc1	-2	21
O=[N+]([O-])c1ccc(-c2nc3nc4ccccc4nc3n2CC2CCCO2)cc1 (stereo not given)	2	-12
CSCCC(=O)N1CCC(C(=O)Nc2cccc(-c3cccc(Cl)c3)c2)CC1	2	1

Bioassay records (PubChem)
